Assay outcomes from PubChem.
RN4220 kill: S. aureus RN4220 growth inhibition; OD600, 16 h; inhibition, % (no concentration beside the values); 330,000 tested, 0.33% active;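 active = z-score of -3 or lower and OD600 up to 0.18 on both plates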;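 note: plate controls were untreated cells for no effect and reference antibiotic for full effect; stock transfer was 100 nL into about 80 µL; one replicate is shown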
Mtb hypoxia inh: reduces hypoxia-regulated biosensor signal in M. tuberculosis | M. tuberculosis hypoxia-regulated fluorescent reporter, fluorescence | fluorescence inhibition, % (no concentration beside the values) | 300,000 tested, 0.1% active | AID 1159583;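 active = 35 to 45% if threefold the growth effect, above 45% if 1.5-fold the growth effect; inactive = the rest, general growth blockers included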;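 note: wells of about 50 µL received 100 nL stock; 0% = vehicle wells and 100% = reference inhibitor wells; whole bacteria with a GFP reporter of the hypoxia response; strong numbers were not always called active; many hits fall short of the cut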
PrP 5UTR inh: inhibition of PrP 5' UTR reporter expression | inhibition, % (test concentration not listed) | 340,000 tested, 0.35% active | AID 488862 | cell-based PrP 5' UTR mRNA reporter, plate reader;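 active = every replicate at 50% or more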;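 note: 0 = median of the neutral control wells; tested in H4 reporter cells; numbers are from one replicate; inactives centre near -14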
Sa ugtP lethal: kills S. aureus RN4220 lacking UgtP | 330,000 tested, 0.54% active | growth inhibition, % (concentration not given with the values) | AID 1259309 | S. aureus RN4220 ugtP deletion, OD600 growth, 16 h; some inactives read as strong as hits;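 active = z-score under -3 and OD600 up to 0.15 on both plates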;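 note: plate controls were untreated wells for no effect and antibiotic for full effect; wells of about 80 µL received 100 nL stock; the first replicate is given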
BJeLR viability: kills HRASV12-expressing BJeLR cells; BJeLR (HRASV12) viability, CellTiter-Glo ATP luminescence, 48 h; reference of the scale not given here; inhibition, % (no concentration beside the values); AID 1554; 300,000 tested, 0.17% active;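 active = replicate mean above 50%; inconclusive = above 50% but judged a plate artefact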;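 note: 50 nL library stock added to about 25 µL; numbers are from one replicate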
Autofluor counter: flagged as autofluorescent in microsphere protease counterscreen. compound autofluorescence counterscreen, microsphere flow cytometry; active compounds read high. fluorescence intensity (no concentration beside the values). 360,000 tested, 3.1% active;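 active = at least 3 SD above the mean of all compounds, about 16000 in these data; inconclusive = too few beads counted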;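 note: 100 nL of 1 mM stock went into each well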
Mtb hypoxia inh growth: second read-out of Mtb hypoxia inh, no call of its own (marks repeat the call); growth inhibition, %; measured here: M. tuberculosis growth (absorbance);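 0% = vehicle and 100% = reference antibiotic; read after six days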
* marks the source's active call; other numbers are inactive results; ? = inconclusive; / = no result given. An unsorted share of the library, and some 4% of all compounds hit somewhere here.

compound	RN4220 kill	Mtb hypoxia inh	Mtb hypoxia inh growth	PrP 5UTR inh	Sa ugtP lethal	BJeLR viability	Autofluor counter
Cc1occc1C(=O)NNC(=O)CN1C(=O)NC2(CCCCC2)C1=O	-1.3	0.5	-3.0	-23.4	-2.3	/	?
COc1ccc(CCc2nnc(CCC(=O)NCc3cnn(-c4ccccc4C)c3)o2)cc1	-0.4	5.0	8.8	-3.4	5.3	1.1	3185
CCN1CCN(C(=O)C(=O)c2cn(CC(=O)N(CC)CC)c3ccccc23)CC1	/	/	/	-11.3	/	9.1	5898
COc1ccccc1N1C(=O)C2C(C(=O)c3ccccc3)=NN(c3ccc(C)cc3)C2C1=O (centres undefined)	4.4	4.4	3.5	/	8.0	3.2	/
NC(=O)c1ccc(NC(=O)Cc2csc(-c3ccccc3)n2)cc1	5.6	9.5	7.7	-21.3	-0.1	4.5	4058
COc1ccc(CCCC(=O)NCc2ccccc2)cc1C	2.3	11.5	5.4	-12.9	6.5	5.7	2451
Cc1nn(-c2ccccc2)c(N2CCCC2)c1/C=N/NC(=O)c1cc(-c2cccnc2)nc2ccccc12	/	/	/	-3.6	/	-13.1	2100
COc1ccc(NC(=O)CON=CC(=O)Nc2ccc(C)cc2)c(OC)c1	3.9	25.8*	51.8*	-15.4	7.3	/	3537
COC(=O)c1ccc(C(NC(=O)OCc2ccccc2)/C(C)=C/[C@@H](C)C(=O)NCc2ccc(OC)c(OC)c2)cc1 (some centres undefined)	/	/	/	-19.5	/	5.6	3497
Cc1ccc2cc(CNCCc3ccccc3C)c(=O)[nH]c2c1	-1.5	10.1	1.8	-18.5	9.5	18.1	3743
COc1cc(C2=NOC(C(=O)NCc3ccccn3)C2)cc(OC)c1OC (centres undefined)	2.8	16.8	16.7	-7.0	1.7	-1.7	4380
CSc1ccc(/C=C(\NC(=O)c2ccccc2)C(=O)NCCN2CCOCC2)cc1	0.1	10.8	3.9	-20.0	5.8	-3.1	3681
CC1Cc2ccccc2N1C(=O)COC(=O)c1cccc(Br)c1 (centres undefined)	4.0	10.8	1.5	-19.9	4.5	/	3733
CCOc1cc(N2CCOCC2)c(OCC)cc1NC(=O)COC(=O)c1cc2ccccc2cc1O	7.7	0.3	5.8	-11.7	-3.0	7.2	2443
CCOc1ccc(CC(=O)NCC(=O)NCc2cc(=O)n(C)c(=O)n2C)cc1	0.5	-0.3	-2.2	-13.6	-1.7	2.2	5240
CN1CN=C(N[N+](=O)[O-])N(Cc2ccco2)C1	1.1	10.0	4.9	-9.3	0.0	-6.3	2069

Reformatted: three of the compounds above
> CCOc1cc(N2CCOCC2)c(OCC)cc1NC(=O)COC(=O)c1cc2ccccc2cc1O
  RN4220 kill: 7.7
  Mtb hypoxia inh: 0.3
  Mtb hypoxia inh growth: 5.8
  PrP 5UTR inh: -11.7
  Sa ugtP lethal: -3.0
  BJeLR viability: 7.2
  Autofluor counter: 2443

> CCOc1ccc(CC(=O)NCC(=O)NCc2cc(=O)n(C)c(=O)n2C)cc1
  RN4220 kill: 0.5
  Mtb hypoxia inh: -0.3
  Mtb hypoxia inh growth: -2.2
  PrP 5UTR inh: -13.6
  Sa ugtP lethal: -1.7
  BJeLR viability: 2.2
  Autofluor counter: 5240

> CN1CN=C(N[N+](=O)[O-])N(Cc2ccco2)C1
  RN4220 kill: 1.1
  Mtb hypoxia inh: 10.0
  Mtb hypoxia inh growth: 4.9
  PrP 5UTR inh: -9.3
  Sa ugtP lethal: 0.0
  BJeLR viability: -6.3
  Autofluor counter: 2069

Next records.
compound	RN4220 kill	Mtb hypoxia inh	Mtb hypoxia inh growth	PrP 5UTR inh	Sa ugtP lethal	BJeLR viability	Autofluor counter
Cc1ccc(S(=O)(=O)N2CCCCC2)cc1NC(=O)c1ccncc1	3.9	-6.7	3.4	-20.9	5.3	/	6185
COc1ccc(CNC(=O)c2ccc(C(C)C)cc2)cc1	3.0	8.1	7.2	14.9	7.7	-3.3	3230
CCOC(=O)c1cnc(SCCN2CCOCC2)nc1N	5.1	1.6	-2.0	-43.8	-3.2	-2.1	4584
COC(=O)CSc1nnc(CNS(=O)(=O)c2ccc(Br)cc2)n1C	1.7	5.6	3.7	-42.8	8.4	12.5	2649
CCOC(=O)C1=C(O)C(=O)N(c2ccc(S(N)(=O)=O)cc2)C1c1ccc(OC)cc1 (centres undefined)	0.7	17.3	23.4	-34.2	5.4	1.7	11741
COc1ccc(NC(=O)CSc2nnc(Cn3cnc4ccccc43)n2C)cc1	-16.4	22.0	-20.1	-7.4	-5.6	2.9	2771
CC(C)c1ccc(OCC(=O)N(Cc2ccco2)C2CCS(=O)(=O)C2)cc1 (centres undefined)	4.0	2.7	3.1	-38.3	3.0	17.3	5301
Cc1cccc(NC(=O)c2ccc(S(=O)(=O)N3CCOCC3)cc2)n1	1.1	3.5	5.0	-32.6	-0.7	7.8	4323
CC1(C)Cc2c(sc3ncnc(NN)c23)CO1	-0.3	2.1	-6.0	-18.5	-3.9	-4.6	3668
CN(Cc1ccccc1)C(=O)c1[nH]cnc1C(=O)N[C@@H](Cc1ccccc1)C(=O)OCc1ccccc1	/	/	/	-1.7	/	-0.7	2716
Cc1cccc(N(C)C(=O)CCS(=O)(=O)c2cccc3nonc23)c1	2.1	12.7	17.7	-11.2	-0.9	-1.9	4340
O=C(Cn1nc2n(c1=O)-c1ccccc1SC2)N/N=C/c1cccnc1	/	/	/	-12.4	/	0.8	4389
COc1ccc(NC(=O)N2CCCC2C(=O)NC2CCCC2)cc1 (centres undefined)	1.7	5.4	3.6	-3.4	5.1	-6.7	3785
C1CSC2(N1)C1CC3CC2CC(C1)C31NCCS1 (centres undefined)	-16.1	5.2	5.7	-7.1	-3.6	13.0	2936
COc1ccc(CNC(=O)C(=O)NCC2OCCN2S(=O)(=O)c2ccc(OC)c(OC)c2)cc1 (centres undefined)	1.9	1.3	5.4	-8.3	6.1	1.5	5483
COc1cc(C(=O)N/N=C/c2cc([N+](=O)[O-])cs2)cc(OC)c1OC	/	/	/	1.8	/	20.7	2528
CCOc1ccc(C(=O)NCCN2CCCCC2)c(OCC)c1	-3.6	9.1	3.7	-26.5	9.1	26.0	3742
CCN(C(=O)COC(=O)Cc1c(F)cccc1Cl)c1c(N)n(Cc2ccccc2)c(=O)[nH]c1=O	-2.1	2.0	-6.4	-15.9	-2.9	/	3023
COC(=O)c1cc2c(ccn2-c2ccc(F)cc2)n1CC(=O)OC(C)C	-3.9	5.6	6.8	-15.0	-6.0	14.2	4703
CC(C)NC(=O)Nc1ccc2c(c1)C(=O)N([C@H](C)CO)C[C@H](C)[C@@H](CN(C)S(=O)(=O)c1cn(C)cn1)O2	3.5	-6.2	-0.3	-12.4	7.7	/	3780
COc1cccc(-c2cc(C(=O)N3CCCCC3C)no2)c1 (centres undefined)	7.1	7.9	6.8	-80.9	-1.8	-11.7	11113
Cc1[nH]c(=O)[nH]c(=O)c1S(=O)(=O)NCC12CC3CC(CC(C3)C1)C2	9.4	-0.3	1.1	-13.4	-0.4	-2.9	21375*
COc1cccc(CNCc2ccc(SC)cc2)c1OC	4.5	-5.8	1.8	-16.1	-0.1	16.4	8191
NS(=O)(=O)c1ccc(NC(=S)NC(=O)c2ccc(-c3ccccc3)cc2)cc1	-6.1	9.3	11.5	-12.5	-22.0	-1.6	8848
COc1cc2sc3cc(NCCC4CCCN4C)ccc3c(=O)c2cc1OC (centres undefined)	1.9	5.6	6.7	/	4.7	/	/
COc1ccc(Nc2nc(C)nc3c2oc2ccccc23)cc1	8.1	4.7	5.6	-12.9	-15.4	4.5	4191
CCOc1cc(C(C(=O)NCC2CCCO2)N(C(=O)Cn2nnc3ccccc32)c2cccc(OC)c2)ccc1O (centres undefined)	3.8	4.9	5.8	-33.3	17.6	-8.3	5263
Cc1nc(-c2cc(-c3nc(-c4ccc(C(F)(F)F)cc4)no3)no2)cs1	1.3	-4.2	-8.4	-10.9	1.6	-2.6	4451
C=CCn1c(CNC(=O)c2ccccc2F)nnc1SCc1nc2ccccc2c(=O)[nH]1	-3.3	-2.8	0.5	1.4	3.1	-2.2	4187
O=C(Nc1ccc2c(c1)CCC2)c1ccccc1F	11.6	/	/	-90.2	-3.9	16.1	2116
COc1ccc(-c2cc(C)no2)cc1S(=O)(=O)N1CCN(c2ccccn2)CC1	2.7	0.9	1.0	-7.7	6.3	-4.1	5420
Oc1c(Br)cc(C=NNC(=S)NCC2CCCO2)cc1Br (centres undefined)	10.6	13.4	0.5	/	12.0	/	/
O=C(c1cnsn1)N1CCC(CO)(Cc2cccc(F)c2)CC1	1.7	-1.7	4.3	-51.0	1.4	-2.8	4824
Cc1sc2c(c1C)c(=O)n(-c1ccc(Cl)cc1)c(=O)n2Cc1cc(=O)n2ccccc2n1	6.7	3.3	1.0	-8.4	4.2	-1.7	9249
COc1ccc(OCC(=O)Nc2c(C(=O)N3CCC(N4CCCCC4)CC3)oc3ccccc23)cc1	4.2	2.8	2.9	-11.2	12.3	-1.1	5162
COc1ccc(-c2cc(C)no2)cc1S(=O)(=O)NCc1cccc(C)c1	3.2	8.6	3.9	-14.1	12.4	2.9	6240
CCc1ccc(-c2cc(C(=O)Nn3cnnc3)c3ccccc3n2)cc1	7.9	12.6	3.6	69.6*	-2.0	15.2	10724
COc1ccc(N(CC(=O)N2CCc3ccccc32)S(=O)(=O)c2c(C)n[nH]c2C)cc1	3.3	1.3	5.6	-44.8	-1.5	-2.7	17257*
CC1CN=C2C(C(=O)Nc3ccccc3)=C(O)CC(c3ccccc3)N21 (centres undefined)	-7.4	-2.2	4.7	5.0	22.3	23.2	2679
Cc1c(Nc2nc(-c3cccc([N+](=O)[O-])c3)cs2)c(=O)n(-c2ccccc2)n1C	1.3	7.6	14.2	47.0	7.8	0.6	3283
Fc1ccccc1C(c1nnnn1Cc1ccc2c(c1)OCO2)N1CCN(Cc2ccco2)CC1 (centres undefined)	-0.1	/	/	-3.2	-5.0	-6.0	4025
O=c1cc(-c2ccccc2)c2ccc(O)cc2o1	1.0	-1.3	-4.1	-21.1	-12.4	10.1	4431
C/C(=N/NC(=O)c1ccc(C(C)(C)C)cc1)c1ccccn1	/	/	/	-8.3	/	-4.7	4095
O=C(CSc1nnc(-c2cccc(S(=O)(=O)N3CCCCC3)c2)o1)c1ccc[nH]1	1.8	/	/	-7.4	-1.4	9.4	2499
O=C(CON=C1CCCc2nonc21)Nc1ccc(Br)cc1	3.0	8.7	1.7	/	-6.5	/	/
CCCC(C)C(=O)Nc1cc(S(=O)(=O)N2CCCCC2)ccc1N1CCOCC1 (centres undefined)	5.5	7.5	-0.3	-17.7	11.6	/	8948
CCOc1ccccc1Nc1ncccc1C(=O)N1CCCC1	8.4	12.2	7.9	-34.2	-3.3	8.8	10013
CC(=NNC(=O)CSc1nc(C)cc(C)n1)c1cccc([N+](=O)[O-])c1	-0.9	-0.8	1.3	/	2.4	/	/
Cc1c(NC(=O)C2(c3ccccc3)CCOCC2)c(=O)n(-c2ccccc2)n1C	5.1	/	/	-17.7	-0.5	-3.8	3760
Nc1ccccc1NC(=O)c1ccccc1N	1.0	4.7	-2.0	-27.6	2.9	-11.3	3828
COc1cccc(CN(CC(=O)NCc2ccco2)C(=O)CNS(=O)(=O)c2ccccc2)c1	2.2	6.8	4.3	-12.5	-0.7	-1.9	3950
O=C(/C=C/c1ccccc1)NC(=S)Nc1ccccc1O	0.8	6.9	-0.1	-33.6	4.8	-2.4	3701
O=C(O)CSc1nnc(CNc2cccc(C(F)(F)F)c2)n1Cc1ccco1	5.4	7.1	4.4	-11.6	3.7	-0.5	3977
C=CCNCCOc1ccccc1-c1ccccc1	6.3	12.9	2.9	-7.5	3.5	5.2	2341
O=C(Nc1nccs1)c1ccc(COc2c(F)c(F)cc(F)c2F)cc1	7.2	10.5	15.1	-18.0	1.6	3.6	3782
Cc1ccc2nc(Nc3ccccc3O)nc(-c3ccccc3)c2c1	6.4	3.7	-0.6	-17.9	-4.6	0.9	11471
COc1ccccc1/C=N/NC(=O)c1ccccc1Cl	/	/	/	-7.3	/	1.6	2476
CCOc1cc(CNc2ccc(OC)cc2)cc(Br)c1OCC(=O)NC(C)(C)C	-3.1	16.0	9.8	-20.0	15.9	-9.6	5907
O=C(/C=C/c1ccco1)Nc1scc(-c2ccccc2)c1C(=O)O	3.9	11.9	-1.2	-24.6	1.5	13.7	4758
